Mtb hypoxia rep = reduces hypoxia-regulated biosensor signal in M. tuberculosis. M. tuberculosis hypoxia-regulated fluorescent reporter, fluorescence. fluorescence inhibition, % (test concentration not listed). hit rate 0.1% among 300,000;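 active means 35 to 45% if threefold the growth effect, above 45% if 1.5-fold the growth effect; inactive means the rest, general growth blockers included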;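 further: wells of about 50 µL received 100 nL stock; 0% = vehicle wells and 100% = reference inhibitor wells; whole bacteria with a GFP reporter of the hypoxia response; strong numbers were not always called active; many hits fall short of the cut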
BJeLR viability = BJeLR cell viability loss. BJeLR (HRASV12) viability, CellTiter-Glo ATP luminescence, 48 h; reference of the scale not given here. inhibition, % (concentration not given with the values). hit rate 0.17% among 300,000;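 active means replicate mean above 50%; inconclusive means above 50% but judged a plate artefact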;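 further: 50 nL library stock added to about 25 µL; numbers are from one replicate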
Bead autofluor = flagged as autofluorescent in microsphere protease counterscreen; compound autofluorescence counterscreen, microsphere flow cytometry; stronger effect = higher value; fluorescence intensity (test concentration not listed); AID 624483; hit rate 3.1% among 360,000;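 active means at least 3 SD above the mean of all compounds, about 16000 in these data; inconclusive means too few beads counted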;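 further: 100 nL of 1 mM stock went into each well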
Sa RN4220 lethal = kills Staphylococcus aureus RN4220; S. aureus RN4220 growth, OD600, 16 h; inhibition, % (test concentration not listed); AID 1259311; hit rate 0.33% among 330,000;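 active means z-score of -3 or lower and OD600 up to 0.18 on both plates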;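 further: plate controls were untreated cells for no effect and reference antibiotic for full effect; stock transfer was 100 nL into about 80 µL; one replicate is shown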
ugtP null kill = growth inhibition of S. aureus ugtP deletion strain; S. aureus RN4220 ugtP deletion, OD600 growth, 16 h; some inactives read as strong as hits; growth inhibition, % (no concentration beside the values); hit rate 0.54% among 330,000; AID 1259309;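 active means z-score under -3 and OD600 up to 0.15 on both plates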;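 further: plate controls were untreated wells for no effect and antibiotic for full effect; wells of about 80 µL received 100 nL stock; the first replicate is given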
PrP 5UTR inh = suppresses PrP 5' UTR mRNA reporter expression | cell-based PrP 5' UTR mRNA reporter, plate reader | inhibition, % (concentration not given with the values) | hit rate 0.35% among 340,000 | AID 488862;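 active means every replicate at 50% or more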;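 further: 0 = median of the neutral control wells; tested in H4 reporter cells; numbers are from one replicate; inactives centre near -14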
Mtb hypoxia rep growth = recorded beside Mtb hypoxia rep, whose call it bears; growth inhibition, %; measured here: M. tuberculosis growth (absorbance);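 0% = vehicle and 100% = reference antibiotic; read after six days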
Starred values were filed as active, the others as inactive; ? = inconclusive; · = not tested or not shown; & = joins results of further samples.

SMILES	Mtb hypoxia rep	Mtb hypoxia rep growth	BJeLR viability	Bead autofluor	Sa RN4220 lethal	ugtP null kill	PrP 5UTR inh
CCOC(=O)c1cc(-c2csc(-c3cccc(Cl)c3)n2)on1	10	17	-10	4210	7.5	1	-14
CCOc1ccc(NC(=O)CC2C(=O)N(C)C(=S)N2Cc2ccco2)cc1 (stereo not drawn)	-5	-7	8	6982	5.9	4	2
Cn1c(=O)c2c(nc(NN=C3CCCc4ccccc43)n2Cc2ccc(F)cc2)n(C)c1=O	-3	-4	·	·	1.2	-5	·
CCCCn1ccc(O)c(Cc2ccc(F)cc2)c1=O	·	·	-10	2421	0.3	3	-37
COc1ccc(C2C=CCNCC(=O)N2Cc2ccc(F)cc2)cc1 (stereo not drawn)	0	9	·	·	3.6	-1	·
O=C(NC(=S)Nc1cccc(Cl)c1)c1cncc(Br)c1	14	5	-3	5463	2.0	34	·
COc1ccc(CNC(=S)Nc2ccc(F)c(Cl)c2)cc1	-2	1	7	4639	-5.8	-17	-15
O=c1[nH]cnc2c1N1CCC2CC1	·	·	2	4889	0.1	3	-3
CS(=O)(=O)c1cccc(C(=O)Nc2cccc(S(=O)(=O)N3CCCC3)c2)c1	6	14	·	·	-0.5	3	-8
COc1cc(CC(=O)NCc2ccco2)cc(OC)c1OC	-6	6	11	4481	-2.6	-7	-4
Cc1c(Cl)c([N+](=O)[O-])nn1CC(=O)Nc1ccc2c(c1)OCO2	5	7	2	2082	2.2	-3	-28
O=C(Cn1nc(-c2ccc3c(c2)OCCO3)ccc1=O)Nc1cccc(NC(=O)c2ccccn2)c1	5	2	2	·	-4.3	4	·
O=C(CCCCCNC(=O)N1CCn2c1nc1ccccc12)NCc1ccc(F)cc1	1	1	0	4757	-1.3	0	-13
CC1=NN(c2nc(-c3ccc(F)cc3)cs2)C(=O)C1	11	17	-6	4238	13	17	-15
COc1ccc(CNC(=O)COC(=O)CO/N=C(\C)c2ccc3c(c2)OCO3)cc1	·	·	-5	?	·	·	-22
CCCN1CCN(c2ncnc3scc(C4COc5ccccc5O4)c23)CC1 (stereo not drawn)	3	0	1	2112	8.8	8	-12
Cc1cccc(OCC(=O)N2CCN(Cc3ccc([N+](=O)[O-])cc3)CC2)c1	19	10	2	3167	-1.3	6	-12
Cc1ccc(CNC(=O)C2CC(c3ccc([N+](=O)[O-])cc3)=NO2)cc1 (stereo not drawn)	·	·	5	4327	7.5	0	-40
CCOc1ccc(-c2cccc(NC(=O)COc3ccccc3)c2)nn1	1	-5	0	5486	2.6	3	-20
COc1ccc(N(CC(=O)O)S(C)(=O)=O)cc1OC	·	·	-3	3526	1.3	2	-6
O=[N+]([O-])c1ccc(Sc2nccn2Cc2ccccc2)c([N+](=O)[O-])c1	-2	-4	4	11369	-1.1	-11	-7
NC(=O)CSc1nc2scc(-c3ccc(Cl)cc3)c2c(=O)n1Cc1ccccc1	-11	-1	-4	2503	-7.3	75	-17
O=C(Nc1ccc(Cl)cc1)c1cc2nc(-c3ccco3)cc(C(F)(F)F)n2n1	3	7	8	2468	7.4	8	-13
CC(C)(C)c1ccc(N=C2SCC(=O)N2Cc2cccs2)cc1	1	-1	1	6169	2.0	81	-32
C=C(c1ccccc1C)[n+]1ccccc1	5	3	7	3717	-1.3	12	-12
COc1ccc(C(=O)NC(C(=O)N2CCc3ccccc32)C(C)C)cc1 (stereo not drawn)	9	10	14	2667	2.7	9	-36
O=C(CSc1nc2cc(Cl)ccc2s1)NCc1ccc2c(c1)OCO2	0	4	0	1885	-2.4	-5	-16
COC(=O)C(c1cc(OC)c(O)c(OC)c1)(N1CCNC(C)C1)C(F)(F)F (stereo not drawn)	7	6	4	18737*	4.1	-5	-55
Cc1nnc(SCC(=O)Nc2nsc(-c3ccccc3)n2)s1	0	-4	-3	21832*	-0.5	1	-7
COc1ccc(Oc2cc(F)nc(N)n2)cc1	11	9	2	7538	2.5	6	-15
O=C(/C=C/c1ccc(F)cc1)NCCCn1ccnc1	3	6	5	3374	1.6	5	-18
CCCc1nnc(NC(=O)C2CC(=O)N(CCc3ccc(F)cc3)C2)s1 (stereo not drawn)	3	0	-7	2852	5.9	13	-12
CCCCn1nc(C(=O)O)ccc1=O	0	0	-4	3874	2.4	0	-17
CCc1nnc2sc(-c3ccc(NC(=O)c4ccc5c(c4)OCCO5)cc3)nn12	-7	-2	3	2876	17	-18	-6
O=C(Nc1nc2ccccc2s1)c1c(F)cccc1Cl	13	18	-5	3259	3.6	2	-31
O=C(Nc1nccs1)C1CC=CCC1 (stereo not drawn)	2	6	8	5435	0.1	13	-16
O=C(Nc1cccc(Cl)c1)NC1CCS(=O)(=O)C1 (stereo not drawn)	11	2	-1	3922	1.3	-5	-9
Cc1ccc(SCc2cn3ccccc3n2)cc1	-4	8	1	6520	3.8	13	-108
N#CCC(=O)NN=Cc1cn(Cc2ccc3ccccc3c2)c2ccccc12	1	2	·	·	0.7	-7	·
C=CCN1C(=O)C2(OCCCO2)c2cc(C)ccc21	6	3	-9	4001	3.9	10	-8
Cc1ccc(CNC(=O)Cn2ncn3cccc3c2=O)cc1	5	3	-15	4132	5.2	-1	-5
CCCCC(CCC(=O)O)(C(=O)OCC)c1csc(Nc2ccc(C)cc2)n1 (stereo not drawn)	7	9	-1	4740	16	-7	-34
CCn1c(SCC(=O)Nc2ccccc2Cl)nnc1C1CC1	10	3	-2	3051	4.8	13	-4
CN(C)C(=O)Cn1cc(S(=O)(=O)Cc2ccccc2)c2ccccc21	14	-3	-3	5743	2.4	5	-17
CC(=O)NN=C(C)CCc1ccccc1	4	1	·	·	2.2	-4	·
O=C(N/N=C/c1ccco1)c1ccc(N2CCCC2=O)cc1	·	·	-2	2358	·	·	-10
CC(C)(C)NS(=O)(=O)c1ccc(CCC(=O)NCc2cccnc2)cc1	10	15	-6	12244	5.0	3	-16
Cc1noc(C)c1NC(=O)NCCN1CCN(Cc2ccccc2)CC1	0	2	1	?	2.8	6	-22
Cc1nn(C)c(C)c1NC(=O)c1ccnn1C	·	·	0	2472	2.1	1	-8
CC(=NNC(=O)c1ccccc1F)c1cccc(NC(=O)c2ccc(C)cc2)c1	-3	5	·	·	1.5	-1	·
CC(C)COP(=O)(c1ccc(N(C)C)cc1)C(O)c1ccc(Br)cc1 (stereo not drawn)	-9	2	2	2617	1.7	-4	-4
CCOC(=O)c1c(CSc2ccccc2)n(C)c2ccc(O)c(CN3CCN(C)CC3)c12	-1	-11	8	4647	1.7	2	-23
COc1ccc(CCNC(=O)COc2ccc(C)nc2[N+](=O)[O-])cc1OC	5	9	1	4258	4.8	3	-26
CCCCc1ccc(NS(=O)(=O)c2c(C)n(C)c(=O)n(C)c2=O)cc1	1	-5	-16	5552	1.1	15	-39
CC(=O)[C@@]1(O)CCC2C3CC(C)C4=CC(=O)C=C[C@]4(C)[C@@]3(F)C(O)C[C@@]21C (stereo partly drawn)	5	16	·	·	5.2	4	·
Cc1ccccc1Nc1nc(N)nc(CSc2nc3ccccc3s2)n1	16	2	-7	2386	5.1	-15	-10
O=C(O)CN1CCCC1=Nc1ccccc1	5	5	-10	11728	1.1	5	-19
CCCS(=O)(=O)N1CCN(C(=O)c2cccs2)CC1	9	8	-5	8870	5.1	0	-11
O=C(c1ccc(F)cc1)N1CCN(C2CCCCC2)CC1	14	3	3	3233	0.4	-2	0
CCC1SC(C)CC(=NNC(N)=O)C1C (stereo not drawn)	10	12	·	·	1.1	1	·

The results go on:
SMILES	Mtb hypoxia rep	Mtb hypoxia rep growth	BJeLR viability	Bead autofluor	Sa RN4220 lethal	ugtP null kill	PrP 5UTR inh
CCn1cnc2c(Nc3cc(F)cc(F)c3)nc(C#N)nc21	-1	5	·	2892	0.2	-29	-24
C(=C\c1ccccc1)/C=N/N1CCN(Cc2ccccc2)CC1	·	·	-1	?	·	·	-35
O=C(COc1ccc(/C=N/NC(=O)CSCc2ccc([N+](=O)[O-])cc2)cc1)NCc1ccco1	·	·	11	2040	·	·	-18
COc1cc(C(=O)Nc2ccc3nc4n(c(=O)c3c2)CCCCC4)cc(OC)c1OC	-1	5	6	5532	-1.4	8	-23
CCN(C(=O)CSc1ncn[nH]1)C1CCCCC1	-1	8	-3	10779	1.3	0	-23
O=C(CCCc1nc(-c2ccccc2Cl)no1)NC1CCCCC1	·	·	-1	2408	-5.1	-1	-32
CCOC(=O)C1CC(=O)c2ccccc2C1c1ccccc1 (stereo not drawn)	18	6	·	4068	1.3	4	-11
COc1ccc(CNC(=O)CN(C(=O)c2csnn2)c2ccc3c(c2)OCCO3)cc1	6	1	-13	5998	3.1	9	-24
O=C(Cn1nnc(-c2cccc(C(F)(F)F)c2)n1)N1CCOCC1	5	7	0	22585*	2.6	8	-45
COc1ccc(S(=O)(=O)N2CCCC2CNC(=O)C(=O)Nc2ccc(C)cc2)cc1 (stereo not drawn)	5	4	-6	·	2.7	4	4
C(=NNCc1ccccc1)c1ccc2ncccc2c1	-16	-1	·	·	-3.8	8	·
O=C(Nc1ccccc1)c1ccccc1CSc1ccccc1	21	10	-3	4133	5.7	8	-6
CC(=NNC(=O)CNC(=O)/C=C/c1ccco1)c1ccc(Cl)cc1	0	-1	·	·	-3.9	4	·
O=C(NCc1cccnc1)/C(=C\c1ccc(-c2ccc(Cl)c(Cl)c2)o1)S(=O)(=O)c1ccccc1	20	7	-2	10306	25	14	-14
O=c1c2ccccc2[nH]c(=S)n1Cc1cccs1	8	9	-7	2692	0.7	-18	-13
CCOC1OC(C(=O)N2CCOCC2)=CC(C2CC2)C1CCCO (stereo not drawn)	3&-6	-5&0	·	·	4.6&-3.8	6&-3	·
CN1CCN(c2ccccc2N)CC1	·	·	5	2007	1.4	4	-3
C=CCN(C(C(=O)OC)C(C)C)S(=O)(=O)CCNCc1ccccc1 (stereo not drawn)	21&22	11&14	·	3007	10&5.7	1&8	-5
COc1ccc(CNCc2ccc([N+](=O)[O-])cc2)cc1OC	-3	3	-8	3207	3.8	2	-14
COc1ccc(S(=O)(=O)N2CCN(C)CC2)cc1NC(=O)c1ccccc1F	8	1	8	3745	12	16	-7

Ordered by heavy-atom count (rising): some entries from above.
SMILES	Mtb hypoxia rep	Mtb hypoxia rep growth	BJeLR viability	Bead autofluor	Sa RN4220 lethal	ugtP null kill	PrP 5UTR inh
CC1=NN(c2nc(-c3ccc(F)cc3)cs2)C(=O)C1	11	17	-6	4238	13	17	-15
COc1cc(CC(=O)NCc2ccco2)cc(OC)c1OC	-6	6	11	4481	-2.6	-7	-4
Cc1c(Cl)c([N+](=O)[O-])nn1CC(=O)Nc1ccc2c(c1)OCO2	5	7	2	2082	2.2	-3	-28
CCOC1OC(C(=O)N2CCOCC2)=CC(C2CC2)C1CCCO (stereo not drawn)	3&-6	-5&0	·	·	4.6&-3.8	6&-3	·
CN(C)C(=O)Cn1cc(S(=O)(=O)Cc2ccccc2)c2ccccc21	14	-3	-3	5743	2.4	5	-17
COc1ccc(C(=O)NC(C(=O)N2CCc3ccccc32)C(C)C)cc1 (stereo not drawn)	9	10	14	2667	2.7	9	-36
COC(=O)C(c1cc(OC)c(O)c(OC)c1)(N1CCNC(C)C1)C(F)(F)F (stereo not drawn)	7	6	4	18737*	4.1	-5	-55
N#CCC(=O)NN=Cc1cn(Cc2ccc3ccccc3c2)c2ccccc12	1	2	·	·	0.7	-7	·
O=C(CCCCCNC(=O)N1CCn2c1nc1ccccc12)NCc1ccc(F)cc1	1	1	0	4757	-1.3	0	-13
Cn1c(=O)c2c(nc(NN=C3CCCc4ccccc43)n2Cc2ccc(F)cc2)n(C)c1=O	-3	-4	·	·	1.2	-5	·
O=C(NCc1cccnc1)/C(=C\c1ccc(-c2ccc(Cl)c(Cl)c2)o1)S(=O)(=O)c1ccccc1	20	7	-2	10306	25	14	-14
O=C(Cn1nc(-c2ccc3c(c2)OCCO3)ccc1=O)Nc1cccc(NC(=O)c2ccccn2)c1	5	2	2	·	-4.3	4	·

Bioassay records as filed in PubChem BioAssay.

Hits appear at their usual frequency, and some 4% of all compounds hit somewhere here.
